Env fusion inh – inhibitors of HIV Env-mediated cell fusion; HeLa-JRFL Env/CEM21 cell fusion, luciferase; inhibition, % at 12.3 µM; 1.1% of 360,000 active;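 active = mean replicate inhibition score of at least 50 and every replicate individually at or above 50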;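 note: 0% = plate neutral controls and 100% = maraviroc near 300 nM; one replicate is shown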
Yeast UUG start – alters start codon recognition fidelity in yeast | activity score, % at 18.7 µM | AID 602363 | 0.13% of 350,000 active | S. cerevisiae UUG-firefly luciferase reporter, luminescence/redox ratio;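 active = replicate mean at a twofold rise or more, about +100% in these data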;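 note: firefly luciferase made from a UUG start codon reports start codon fidelity; reporter light over untreated wells divided by growth signal over untreated wells; some hits fall short of that in this replicate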
Active calls of the source: *; [ ] = another dose, or the depositor's remark. Some of the compounds tested; rates above refer to the full screens.

Below each SMILES: Env fusion inh, Yeast UUG start
Cc1ccc(S(=O)(=O)N[C@@H]2CC[C@@H](CC(=O)NCCN3CCCCC3)O[C@H]2CO)cc1
→ -9[16.7 µM], -3
COc1ccc(S(=O)(=O)Nc2ccc3c(c2)C(=O)N([C@@H](C)CO)C[C@H](C)[C@@H](CN(C)C(=O)Nc2c(C)noc2C)O3)cc1
→ 22[16.7 µM], -5
C[C@H]1CN([C@@H](C)CO)S(=O)(=O)c2ccc(/C=C/c3ccccc3)cc2O[C@H]1CN(C)C(=O)NC1CCCC1
→ -21[16.7 µM], -14
CN1C(=O)c2cc(NC(=O)NCc3ccccc3)ccc2OC[C@@H]2O[C@@H](CC(=O)O)CC[C@H]21
→ -15[16.7 µM], -19
C[C@@H]1CN([C@H](C)CO)C(=O)c2cc(-c3cccnc3)cnc2O[C@H]1CN(C)C(=O)c1cccc(F)c1
→ -15[16.7 µM], 2
C[C@@H]1CN([C@H](C)CO)C(=O)c2cc(NC(=O)CCC(F)(F)F)ccc2O[C@H]1CN(C)Cc1ccc2c(c1)OCO2
→ -6[16.7 µM], -8
N#C[C@H]1[C@@H](c2ccc(C#Cc3ccccc3F)cc2)[C@@H](CO)N1C(=O)C1CCOCC1
→ 18[16.7 µM], 7
C[C@@H]1CN([C@H](C)CO)C(=O)c2cc(NC(=O)Nc3ccccc3)ccc2O[C@@H]1CN(C)Cc1ccc(Cl)c(Cl)c1
→ -9[16.7 µM], 3
Cc1ccc(S(=O)(=O)Nc2cccc3c2O[C@H](CN(C)S(=O)(=O)c2ccc(F)cc2)[C@@H](C)CN([C@H](C)CO)C3=O)cc1
→ 3[16.7 µM], -17
COc1ccc(NC(=O)Nc2ccc3c(c2)C(=O)N([C@@H](C)CO)C[C@H](C)[C@@H](CN(C)Cc2ccccc2)O3)cc1
→ -1[16.7 µM], 8
C[C@H]1CN([C@@H](C)CO)C(=O)c2cc(-c3cncnc3)cnc2O[C@@H]1CN(C)C(=O)c1cccc(F)c1
→ -3[16.7 µM], 9
C[C@H]1CN([C@@H](C)CO)C(=O)c2cccc(N(C)C)c2O[C@H]1CN(C)C
→ -6[16.7 µM], -17
COc1ccc(NC(=O)N(C)C[C@@H]2Oc3ccc(NS(C)(=O)=O)cc3CC(=O)N([C@H](C)CO)C[C@H]2C)cc1
→ 18[16.7 µM], -19
C[C@H](CO)N1C[C@H](C)[C@H](CN(C)Cc2ccncc2)Oc2ccc(NC(=O)Nc3ccccc3)cc2C1=O
→ 17[16.7 µM], -8
CC(C)NC(=O)Nc1cccc2c1O[C@H](CN(C)C(=O)NC1CCCCC1)[C@H](C)CN([C@@H](C)CO)C2=O
→ -1[16.7 µM], 11
O=C(NCC[C@H]1CC[C@@H](NC(=O)c2cnccn2)[C@@H](CO)O1)Nc1ccc(Cl)cc1
→ 20[16.7 µM], 14
CCC(=O)N(C)C[C@@H]1Oc2ncc(-c3ccccc3C)cc2C(=O)N([C@@H](C)CO)C[C@@H]1C
→ -7[16.7 µM], 1
CS(=O)(=O)Nc1ccc2c(c1)[C@H]1C[C@@H](CC(=O)NCC(F)(F)F)O[C@@H](CO)[C@H]1O2
→ -9[16.7 µM], 4
Cc1ccc(S(=O)(=O)N(C)C[C@H]2Oc3c(NC(=O)C4CCOCC4)cccc3C(=O)N([C@@H](C)CO)C[C@H]2C)cc1
→ -34[16.7 µM], -6
C[C@@H]1CN([C@@H](C)CO)C(=O)c2cccc(NC(=O)c3ccc(-c4nccs4)cc3)c2O[C@H]1CN(C)Cc1ccccc1
→ 13[16.7 µM], -3

Pulled by compound from the entries so far (two):
Below each SMILES: Env fusion inh, Yeast UUG start
CS(=O)(=O)Nc1ccc2c(c1)[C@H]1C[C@@H](CC(=O)NCC(F)(F)F)O[C@@H](CO)[C@H]1O2
→ -9[16.7 µM], 4
CC(C)NC(=O)Nc1cccc2c1O[C@H](CN(C)C(=O)NC1CCCCC1)[C@H](C)CN([C@@H](C)CO)C2=O
→ -1[16.7 µM], 11

The listing continues:
Below each SMILES: Env fusion inh, Yeast UUG start
COc1ccc(CN(C)C[C@@H]2OCCCC[C@H](C)Oc3ccc(NC(=O)c4ccccc4)cc3C(=O)N([C@H](C)CO)C[C@@H]2C)cc1
→ -33[16.7 µM], 31
Cc1ccc(S(=O)(=O)Nc2ccc3c(c2)C(=O)N([C@@H](C)CO)C[C@H](C)[C@@H](CN(C)C(=O)CCCN(C)C)OCCCC[C@H](C)O3)cc1
→ -1[16.7 µM], 5
C/C=C/c1ccc2c(c1)O[C@@H](CN(C)Cc1ccncc1)[C@@H](C)CN([C@@H](C)CO)S2(=O)=O
→ 17[16.7 µM], -5
C[C@H]1CN([C@@H](C)CO)C(=O)Cc2cc(NC(=O)Nc3ccccc3)ccc2O[C@H]1CN(C)Cc1ccc(Oc2ccccc2)cc1
→ -3[16.7 µM], 10
Cc1noc(C)c1S(=O)(=O)Nc1ccc2c(c1)CC(=O)N([C@H](C)CO)C[C@H](C)[C@@H](CN(C)Cc1ccc(C(F)(F)F)cc1)O2
→ 9[16.7 µM], 19
C[C@@H]1CN([C@H](C)CO)C(=O)c2cc(NC(=O)Nc3ccc4c(c3)OCO4)ccc2O[C@@H](C)CCCCO[C@@H]1CN(C)Cc1ccc(C(=O)O)cc1
→ 16[16.7 µM], 12
C[C@H](CO)N1C[C@H](C)[C@@H](CN(C)C(=O)C2CCCCC2)Oc2cc(C#Cc3ccncc3)ccc2S1(=O)=O
→ -90[16.7 µM], 6
C[C@H](CO)N1C[C@H](C)[C@H](CN(C)C(=O)CC2CC2)Oc2cc(-c3cccnc3)ccc2S1(=O)=O
→ -2[16.7 µM], 15
C[C@@H]1CN([C@@H](C)CO)C(=O)Cc2cc(NS(=O)(=O)c3cn(C)cn3)ccc2O[C@H]1CN(C)Cc1ccc(C(F)(F)F)cc1
→ -15[16.7 µM], 4
C[C@@H]1CN([C@H](C)CO)S(=O)(=O)c2ccc(-c3ccc(C(=O)N(C)C)cc3)cc2O[C@H]1CN(C)C(=O)C1CCCCC1
→ -3[16.7 µM], 17
C[C@H]1CN([C@@H](C)CO)C(=O)c2cc(NC(=O)C3CCCCC3)ccc2O[C@@H]1CN(C)S(=O)(=O)c1ccc(Cl)cc1
→ 8[16.7 µM], -16
C[C@@H]1CN([C@@H](C)CO)C(=O)Cc2cc(NC(=O)NC3CCCCC3)ccc2O[C@@H]1CN(C)Cc1ccc(C(F)(F)F)cc1
→ 3[16.7 µM], 3
COCC#Cc1ccc2c(c1)O[C@H](CN(C)C(=O)Nc1ccccc1F)[C@H](C)CN([C@H](C)CO)S2(=O)=O
→ -30[16.7 µM], 18
C[C@@H]1CN([C@H](C)CO)C(=O)c2cc(NC(=O)Cn3cnnn3)ccc2O[C@H]1CN(C)Cc1ccccc1
→ 9[16.7 µM], 0
C[C@H]1CN([C@@H](C)CO)C(=O)Cc2cc(NC(=O)Cn3cnnn3)ccc2O[C@@H]1CN(C)S(C)(=O)=O
→ 5[16.7 µM], -8
C[C@H](CO)N1C[C@H](C)[C@H](CN(C)Cc2ccc(C(=O)Nc3ccccc3N)cc2)Oc2ccc(NS(=O)(=O)c3ccc(F)cc3)cc2C1=O
→ -9[16.7 µM], 1
C[C@@H]1CCCCO[C@@H](CN(C)Cc2ccncc2)[C@@H](C)CN([C@H](C)CO)C(=O)c2cc(NS(=O)(=O)c3cn(C)cn3)ccc2O1
→ -16[16.7 µM], -3
Cc1ccc(F)cc1S(=O)(=O)N[C@@H]1CCN(Cc2ccc3[nH]ccc3c2)C1
→ 0[16.7 µM], -4
C[C@@H]1CN([C@@H](C)CO)C(=O)c2cc(NC(=O)C3CCCCC3)ccc2O[C@@H](C)CCCCO[C@@H]1CN(C)C(=O)Cc1ccccc1
→ -18[16.7 µM], 28
C[C@H]1CN([C@@H](C)CO)C(=O)Cc2cc(N(C)C)ccc2O[C@@H]1CN(C)C(=O)Nc1ccccc1
→ -18[16.7 µM], -7
C[C@H](CO)N1C[C@H](C)[C@@H](CN(C)C(=O)C2CC2)Oc2ncc(C#Cc3ccccc3F)cc2C1=O
→ 4[16.7 µM], 13
O=C(C[C@@H]1CC[C@H](NC(=O)c2ccccc2)[C@H](CO)O1)NCc1ccncn1
→ 1[16.7 µM], -6
CCCN(C)C[C@H]1Oc2ncc(-c3ccccc3OC)cc2C(=O)N([C@H](C)CO)C[C@@H]1C
→ 16[16.7 µM], 23
COc1ccc(COC[C@]23Oc4ccccc4[C@H]([C@H]2COC(=O)c2ccccc2)N(C(=O)CC(C)=O)C(=O)N3C)cc1
→ -1[16.7 µM], -19
C[C@H](CO)N1C[C@H](C)[C@H](CN(C)Cc2ccc(-c3ccccc3)cc2)Oc2c(NC(=O)Nc3ccc(F)cc3)cccc2C1=O
→ -30[16.7 µM], -7
CC(C)CC#Cc1ccc2c(c1)O[C@H](CN(C)C(=O)c1ccccc1F)[C@@H](C)CN([C@H](C)CO)S2(=O)=O
→ 11[16.7 µM], -11
COc1ccc(NC(=O)N(C)C[C@@H]2OCCCC[C@H](C)Oc3ccc(NC(=O)CCCN(C)C)cc3C(=O)N([C@@H](C)CO)C[C@H]2C)cc1
→ 14[16.7 µM], 11
C[C@H](NC(=O)C[C@@H]1C[C@H]2c3cc(NC(=O)CN(C)C)ccc3O[C@H]2[C@@H](CO)O1)c1ccccc1
→ 7[16.7 µM], 5
C[C@@H]1CCCCO[C@H](CN(C)CC2CCCCC2)[C@H](C)CN([C@@H](C)CO)C(=O)c2cc(NC(=O)CCCCCC(=O)Nc3ccccc3N)ccc2O1
→ -12[16.7 µM], -6
O=C(C[C@@H]1C=C[C@@H](NC(=O)Cc2ccccn2)[C@@H](CO)O1)NCCc1ccncc1
→ 8[16.7 µM], -2

Molecules shown so far that have a Cl atom:
Below each SMILES: Env fusion inh, Yeast UUG start
C[C@@H]1CN([C@H](C)CO)C(=O)c2cc(NC(=O)Nc3ccccc3)ccc2O[C@@H]1CN(C)Cc1ccc(Cl)c(Cl)c1
→ -9[16.7 µM], 3
O=C(NCC[C@H]1CC[C@@H](NC(=O)c2cnccn2)[C@@H](CO)O1)Nc1ccc(Cl)cc1
→ 20[16.7 µM], 14
C[C@H]1CN([C@@H](C)CO)C(=O)c2cc(NC(=O)C3CCCCC3)ccc2O[C@@H]1CN(C)S(=O)(=O)c1ccc(Cl)cc1
→ 8[16.7 µM], -16

New compounds follow.
Below each SMILES: Env fusion inh, Yeast UUG start
Cc1noc(C)c1NC(=O)N(C)C[C@@H]1Oc2c(NS(=O)(=O)c3ccccc3)cccc2C(=O)N([C@H](C)CO)C[C@H]1C
→ -9[16.7 µM], -10
CNC(=O)C[C@H]1CC[C@@H]2[C@H](COc3ccc(NC(=O)c4cccs4)cc3C(=O)N2C)O1
→ -4[16.7 µM], -1
C[C@H]1CN([C@@H](C)CO)C(=O)Cc2cc(NC(=O)Cc3cn(C)c4ccccc34)ccc2O[C@@H]1CN(C)S(=O)(=O)c1ccccc1
→ -1[16.7 µM], -18
COc1cccc(NC(=O)N(C)C[C@H]2Oc3cc(-c4cccc(C(=O)N(C)C)c4)ccc3S(=O)(=O)N([C@@H](C)CO)C[C@H]2C)c1
→ -60[16.7 µM], -2
C[C@@H]1CN([C@@H](C)CO)C(=O)c2cc(N(C)C)ccc2O[C@@H](C)CCCCO[C@H]1CN(C)C(=O)CCCN(C)C
→ -12[16.7 µM], 2
Cc1ccc(S(=O)(=O)Nc2cccc3c2O[C@H](CN(C)Cc2ccncc2)[C@@H](C)CN([C@H](C)CO)C3=O)cc1
→ -7[16.7 µM], -12
C[C@@H]1CN([C@@H](C)CO)C(=O)Cc2cc(NC(=O)CCCN(C)C)ccc2O[C@H]1CN(C)S(C)(=O)=O
→ -13[16.7 µM], 33
CC(=O)N(C)C[C@@H]1Oc2cc(C#CC3CCCC3)ccc2S(=O)(=O)N([C@H](C)CO)C[C@H]1C
→ -1[16.7 µM], 6
C[C@@H]1CN([C@H](C)CO)C(=O)c2cc(-c3ccc(C#N)cc3)cnc2O[C@@H]1CN(C)CC1CCCC1
→ -17[16.7 µM], -7
Cc1noc(C)c1S(=O)(=O)Nc1ccc2c(c1)C(=O)N([C@H](C)CO)C[C@H](C)[C@H](CN(C)S(C)(=O)=O)O2
→ -9[16.7 µM], -3
C[C@@H]1CN([C@@H](C)CO)C(=O)Cc2cc(NC(=O)C3CC3)ccc2O[C@@H]1CN(C)Cc1ccc(C(=O)O)cc1
→ 15[16.7 µM], -3
COc1ccc(NC(=O)Nc2cccc3c2O[C@@H](CN(C)Cc2ccc(-c4ccccc4)cc2)[C@H](C)CN([C@H](C)CO)C3=O)cc1
→ 4[16.7 µM], -5
C[C@H]1CN([C@@H](C)CO)C(=O)c2cccc(NC(=O)C3CCOCC3)c2O[C@@H]1CN(C)C(=O)Nc1ccc(C(F)(F)F)cc1
→ 11[16.7 µM], 0
COc1ccc(NC(=O)Nc2ccc3c(c2)CC(=O)N([C@H](C)CO)C[C@@H](C)[C@H](CN(C)Cc2ccc(Oc4ccccc4)cc2)O3)cc1
→ 60*[16.7 µM], 20
COc1ccc(C#Cc2cnc3c(c2)C(=O)N([C@H](C)CO)C[C@H](C)[C@@H](CN(C)C(=O)CN(C)C)O3)cc1
→ 2[16.7 µM], -3
CS(=O)(=O)N1[C@@H](C#N)[C@H](c2ccc(C#CC3CC3)cc2)[C@@H]1CO
→ 8[16.7 µM], -12
CNC[C@H]1Oc2ccc(NC(=O)c3ccncc3)cc2C(=O)N([C@H](C)CO)C[C@H]1C
→ -3[16.7 µM], -9
O=C1O[C@@H](c2ccccc2)[C@@H](c2ccccc2)N2[C@@H](c3ccc(O)cc3)[C@]3(C(=O)Nc4ccccc43)[C@@H](C(=O)N3CCCCCCC3)[C@H]12
→ 11[16.7 µM], -9
C[C@@H]1CCCCO[C@H](CN(C)C(=O)C2CCCCC2)[C@H](C)CN([C@@H](C)CO)C(=O)c2cc(NC(=O)c3ccccc3)ccc2O1
→ -27[16.7 µM], 0

From PubChem BioAssay
